Vaccinia Venus: inhibitors of vaccinia virus (Venus reporter); Vaccinia virus Venus reporter expression, fluorescence; Potency, µM (titrated, usually from 36.5 µM), without a hit: at the top dose activity change, negative = inhibition, hits mostly inhibitors; 0.46% of 330,000 active; AID 720580; active means well fitted inhibition curve with a large enough effect; inconclusive means small, poorly fitted or top-dose-only effect; inactive means no such curve, though single readings can be large or run the other way; tested in A549 cells; also: nearly all actives have a fitted effect of over 30% in size; inactives centre near -10
VACV mCherry inh: vaccinia inhibition (mCherry reporter). 0.63% of 310,000 active. Vaccinia virus mCherry reporter infection, fluorescence; about a quarter of the inactives have no number. Potency, µM (highest dose often 36.5 µM), without a hit: at the top dose activity change, negative = inhibition, usual class: inhibitors; active = well fitted inhibition curve with a large enough effect; inconclusive = small, poorly fitted or top-dose-only effect; inactive = no such curve, though single readings can be large or run the other way; tested in A549 cells; also: nearly all actives have a fitted effect of over 35% in size; inactives centre near -10
The depositor's hits bear a star; i = inactive; ? = inconclusive; . = no result given; & = joins results of further samples; [ ] = dose if it differs, or a comment. % is scaled to controls: 0 for no effect and ±100 for the full control effect; potency is read from the fitted curve at half-maximal effect.

SMILES | Vaccinia Venus | VACV mCherry inh
CCCCCCCCCCCCCCCCCCOC[C@H](COP(=O)([O-])OCC[N+](C)(C)C)OC(C)=O | -12%[3.33 µM] | -4%[3.33 µM]
COc1ccccc1CNC(=O)c1ccc(-c2nc(CS(=O)c3ccc(C)cc3)c(C)o2)cc1 (centres undefined) | -16% | -25%
Cc1[nH]n(-c2ccc(Cl)cc2)c(=O)c1C=Nc1ccc(S(=O)(=O)N2CCOCC2)cc1 | 0% | i
CCC(NS(=O)(=O)c1ccc(OC)cc1)C(=O)NCCC1=CCCCC1 (centres undefined) | -14% | i
O=C(NC1CC1)C1=C[C@@H](c2coc3ccccc3c2=O)C[C@@H](OCc2ccc(CO)cc2)O1 | 2% | -3%
Cc1ccc(NC(=O)CCn2ccc([N+](=O)[O-])n2)nc1 | -23% | -19%
Cc1ccc(S(=O)(=O)Nc2cccc(-c3ccc(N4CCCC4)nn3)c2)c(C)c1 | -16% | -19%
COc1ccc(C2C=C(c3ccc(Cl)cc3)Nc3nc(NC(=O)CCC(=O)O)nn32)cc1 (centres undefined) | -6% | -4%
O=C(NCCCN1CCCCC1)C1CCCN(c2ncnc3c2nc2n3CCCCC2)C1 (centres undefined) | -15% | i
CCc1cccc(C)c1NC(=O)CCCC(=O)O | 6% | -4%
COc1cc(C(=O)Nc2cc(C(F)(F)F)ccc2-n2cncn2)cc(OC)c1OC | -1% | i
CCOC(=O)C1=C(C)NC2=C(C(=O)CCC2)C1c1cccnc1 (centres undefined) | -8% | -4%
O=C(c1ccc(S(=O)(=O)N2CCOCC2)cc1)N1CCN(c2ccc(F)cc2)CC1 | 1% | .
C/C(=N\NC(=S)Nc1cccc(C)c1)c1ccco1 | -15% | -18%
Cc1ccc(SCC(=O)Nc2ccc(C(=O)Nc3ccc(O)cc3)cc2)cc1 | 6% | 10%
Cc1ccc(SC(C)C(=O)NCc2ccc(F)cc2)cc1 (centres undefined) | -14% | -8%
Cc1[nH]n2c(=O)c3c(nc2c1-c1ccccc1)CCC3 | -28% | .
Cc1nc2ccc(S(=O)(=O)NC(C(=O)N3CCn4c3nc3ccccc34)C(C)C)cc2s1 (centres undefined) | -10% | 12%
COc1cccc(NC(=O)CN(C)C(C)C(=O)Nc2ccc(C#N)cc2)c1 (centres undefined) | -15% | i
CCc1ccc(NC(=O)C2CCCN(S(=O)(=O)c3c(C)noc3/C=C/N(C)C)C2)cc1 (centres undefined) | -13%[7.34 µM] | -3%[7.34 µM]

Complete entries, looked up by structure. Order of values: Vaccinia Venus | VACV mCherry inh
Shown for Cc1ccc(SC(C)C(=O)NCc2ccc(F)cc2)cc1 (centres undefined) → -14% | -8%
Shown for COc1cccc(NC(=O)CN(C)C(C)C(=O)Nc2ccc(C#N)cc2)c1 (centres undefined) → -15% | i

The results go on.
SMILES | Vaccinia Venus | VACV mCherry inh
C=CCNC(=O)c1ccc2nc(-c3ccco3)c(-c3ccco3)nc2c1 | -19% | -2%
O=c1oc2ccccc2c(O)c1/C=C1\C=Nc2ccccc21 | 5% | 0%
COc1cc(OC)c(C#N)c(S(=O)(=O)Cc2ccccc2)c1 | -21% | i
COCCCNC(=O)C(=O)Nc1cc2c3c(c1)CCC(=O)N3CCC2 | 16%[7.34 µM] | 16%[7.34 µM]
COc1ccc(S(=O)(=O)NCCSCc2ccco2)cc1C | -3% | -13%
CCn1cc(CN2CCc3c([nH]c4ccccc34)C2c2cccc(OC)c2)c(C)n1 (centres undefined) | -9% | ?
C=CCOc1cccc(C2NC(=O)c3ccccc3O2)c1 (centres undefined) | -14% | -23%
O=C(O)c1ccc(/C=N/NC(=O)C(O)(c2ccccc2)c2ccccc2)cc1 | -14% | -12%
Cc1cc([N+](=O)[O-])nn1CC(=O)Nc1ccc(F)cc1 | 4% | i
Cc1ccc(C(=O)N2CCN(C(=O)c3ccco3)CC2)cc1NC(=O)c1ccco1 | 5% | i
CC1C2CC(C(S(=O)(=O)N3CCOCC3)C2=O)C1(C)C (centres undefined) | -8% | -8%
Cc1cccc(S(=O)(=O)NNC(=O)Cc2cccn2C)c1 | 1% | -8%
CCOc1cc(N2CCOCC2)c(OCC)cc1NC(=O)c1ccccc1N1CCCC1=O | 5% | i
Cc1ccc(S(=O)(=O)N2CCCCC2CCNC(=O)C(=O)NC2CC2)cc1 (centres undefined) | -17% | -19%
Cc1cc(O)c(C(C[N+](=O)[O-])c2ccc(Cl)cc2Cl)c(=O)o1 (centres undefined) | -13% | i
COc1ccc(NC(=O)CN2CCc3ccccc3C2)cc1OC | -2% | i
CCNS(=O)(=O)c1ccc(CCC(=O)NCCC2=CCCCC2)cc1 | -18% | i
CCc1c(C2CC2)ncn1Cc1cccc(-c2ccccc2)c1 | -22% | -7%
CCC(CC)C(=O)Nc1nnc(S(=O)(=O)N2CCCCCC2)s1 | -20%&-5% | 2%
Cc1ccc(CSCC(=O)NCc2cccs2)cc1 | -5% | i
Cc1ccc(NCc2nnc(SCC#N)o2)c(C)c1 | -17% | -13%
CN(C)N=O | -9% | i
C[C@@H]1CN(S(=O)(=O)C(C)(C)C)[C@H](CCO)/C1=C\c1ccccc1 | -13% | i
CCc1cc2cc(C(=O)N3CCN(Cc4ccccc4)CC3)sc2s1 | -17% | -7%
O=C1CCC/C1=C/Nc1ccc(Cl)cc1 | -12% | -18%
CN1CCN(NC(=O)CN2C(=O)/C(=C/c3ccccc3Cl)SC2=S)CC1 | 107%[activator] | 63%[activator]
O=C(NCc1ccco1)Nc1cccc(-c2ccccc2)c1 | -15% | -7%
Cc1cccc(CSC2=NCCN2C(=O)c2ccco2)c1 | -3% | 1%
Cc1cc(NC(=O)c2ccc(S(=O)(=O)N3CCCC3)cc2)nc2c1c(=O)oc1ccccc12 | -6% | .
CCOC(=O)C1(CCCc2ccccc2)CCN(CCCn2cccn2)CC1 | -20% | i
CCc1nc2ccc(C(=O)Nc3cccc(OCC(=O)N(C)C)c3)cn2c1N(C)Cc1ccc(N(C)C)cc1 | -10% | i
O=C(NCCc1ccc(F)cc1)c1ccc([N+](=O)[O-])cc1 | -14% | -20%
CCOc1cc(/C=C2/C(=O)ON=C2C)ccc1OCc1ccccc1 | -11% | i
O=C(N[C@@H]1C/C=C\C[C@H](CC(=O)N(CCO)Cc2ccccc2)C(=O)NC[C@@H](c2ccccc2)OC1=O)OCC1c2ccccc2-c2ccccc21 | ? | -6%
CCN(CC)CCNCc1ccc(-c2ccc(Cl)cc2)o1 | -13% | -1%
O=C(NCCS(=O)(=O)N1CCN(c2ccc(F)cc2)CC1)C(c1ccccc1)c1ccccc1 | -15% | -10%
O=C(NCc1ccccn1)c1ccc(NC(=O)c2ccco2)cc1 | -10% | .
COc1cc(NC(=O)CSc2nc3c(C)ccc(C)c3cc2C)c(C(=O)O)cc1OC | -7% | i
CC(=O)c1c(C(C)=O)c(C)n(Cc2ccc(Cl)cc2)c1C | -20% | ?
O=C(CCc1ccccc1)Nc1ncn[nH]1 | -10% | .

Other entries
Order of results: Vaccinia Venus	VACV mCherry inh
> Nc1cccc2[nH]c(=O)c3ccccc3c12
→ 0%	i
> N#Cc1c[nH]n2c(NC3CCCC3)c(-c3cccc(Br)c3)nc12
→ -23%	-16%
> Cc1ccc(-n2cc(CNC(C)Cc3cnccn3)c(-c3cccc(C)c3)n2)cc1 (centres undefined)
→ -15%	-16%
> CC1=C(C(=O)OC2CCCCC2)C(c2ccc(C)o2)C2=C(CCCC2=O)N1 (centres undefined)
→ -27%	.
> Cc1cccc(OCC(=O)O/N=C(\N)c2ccccn2)c1
→ -9%	-13%
> C/C(=N\NC(=O)c1ccccc1-n1cccc1)C1CC1
→ -14%	-14%
> O=C(CSc1nnnn1C1CCCCC1)NCc1ccco1
→ -1%	i
> CCN(c1cccc(C)c1)S(=O)(=O)c1ccc(OC)c([N+](=O)[O-])c1
→ -7%	-6%
> CNC(=S)N(Cc1cccs1)Cc1cc2cc(OC)ccc2[nH]c1=O
→ 1%	-15%
> Cn1cc(S(=O)(=O)N2CCCCCC2)cc1C(=O)NCc1ccc(F)cc1
→ -6%	-6%
> COc1ccc(CSC(=N)N)cc1[N+](=O)[O-]
→ -9%	.
> CCOc1ccc(NC(N)=O)cc1
→ -12%	i
> CCOC(=O)c1c(CC(C)C)csc1/N=C/C1C(=O)CC(C)(C)CC1=O
→ -5%	i
> COc1ccc(-c2n[nH]nc2C2=CC(=O)CC(C)(C)C2)cc1
→ -20%	-13%
> Cc1cccnc1Nc1nc(-c2ccc(O)cc2)cs1
→ -5%	i
> COc1ccc(/C=C2/N=C(SC3CCOC3=O)N(c3cccc(OC)c3)C2=O)cc1 (centres undefined)
→ -15%	-13%
> Cc1c(C(=O)Nc2ccc(-c3nc4cc(Cl)ccc4o3)cc2)oc2ccccc12
→ 1%	-7%
> CC1(c2ccccc2)NC(=O)N(CC(=O)NCC2CCCO2)C1=O (centres undefined)
→ -7%	-11%
> O=C(N/N=C/c1coc2ccccc2c1=O)c1ccncc1
→ -14%	-6%
> O=C(CC1S/C(=N/N=C/C=C/c2ccccc2)NC1=O)Nc1ccc(Cl)c(Cl)c1 (centres undefined)
→ -10%	-13%
> CCOc1ccc(C(=O)N2CCCCC2CCN2CCOCC2)cc1 (centres undefined)
→ -10%	-16%
> COc1cccc(CNC(=O)C2CCN(S(=O)(=O)N3CCC(C)CC3)CC2)c1
→ -12%	i
> O=C(CSc1nncn1-c1ccccc1)Nc1ccc(F)cc1F
→ -12%	12%
> COc1ccc(OC)c(S(=O)(=O)Nc2ccc3c(c2)C(=O)OC3)c1
→ ?	-28%
> COc1ccc(N(Cc2ccco2)C(=O)c2ccccc2F)cc1OC
→ -15%	.
> COC(=O)c1c(C)oc2ccc(N(C(C)=O)S(=O)(=O)c3ccccc3)cc12
→ ?	-15%
> N#C/C(=C\c1ccc2c(c1)OCCO2)C(=O)NC1CCCCC1
→ -12%	-10%
> Cc1c(Cl)cccc1NC(=O)CCCn1nc(C)c2sc3ccccc3c2c1=O
→ -7%	-11%
> CC(=O)NC(c1cccc(F)c1)c1nc(-c2cc(F)cc(Cl)c2)cs1 (centres undefined)
→ -16%	22%
> CC(C)NC(=S)NC(=O)/C=C/c1cccc2ccccc12
→ -10%	-19%
> CCOc1ccccc1C(=O)NCC(c1cccs1)S(=O)(=O)c1ccc(F)c(C)c1 (centres undefined)
→ -11%	-14%
> Cc1ccc(S(=O)(=O)NCCC(C)C)cc1[N+](=O)[O-]
→ -7%	-14%
> CCNC(=S)NNC(=O)c1cccs1
→ -4%	.
> COC(=O)C1=CN(C2CC2)C=C(C(=O)OC)C1c1ccccc1OC
→ -6%	-3%
> O=C(CN1C(=O)NC2(CCCC2)C1=O)Nc1nc2c(F)cc(F)cc2s1
→ -9%	i
> O=C(Nc1ccnn1C1CCN(C(=O)c2ccccc2C(F)(F)F)CC1)C1CC1
→ -7%	-14%
> CCOC(=O)N1CCN(C(=O)COC(=O)Cc2ccc(Cl)cc2)CC1
→ -6%	-17%
> CCOC(=O)Cc1cc(=O)n2[nH]c(-c3ccc(C)cc3)cc2n1
→ 14%	11%
> CC(=O)c1c(C)[nH]c(C(=O)OCC(=O)NCCC2=CCCCC2)c1C
→ -23%	-26%
> C[C@H](CO)N1C[C@H](C)[C@@H](CN(C)S(C)(=O)=O)Oc2c(NC(=O)Cc3ccccc3)cccc2C1=O
→ -16%	i

A different layout for 4 compounds above:
mol: CCOc1ccccc1C(=O)NCC(c1cccs1)S(=O)(=O)c1ccc(F)c(C)c1 (centres undefined)
  Vaccinia Venus: -11%
  VACV mCherry inh: -14%
mol: COc1ccc(OC)c(S(=O)(=O)Nc2ccc3c(c2)C(=O)OC3)c1
  Vaccinia Venus: ?
  VACV mCherry inh: -28%
mol: O=C(Nc1ccnn1C1CCN(C(=O)c2ccccc2C(F)(F)F)CC1)C1CC1
  Vaccinia Venus: -7%
  VACV mCherry inh: -14%
mol: O=C(CSc1nncn1-c1ccccc1)Nc1ccc(F)cc1F
  Vaccinia Venus: -12%
  VACV mCherry inh: 12%

More entries.
Order of results: Vaccinia Venus	VACV mCherry inh
> Cc1cccc2c1-c1sc(C(=O)Nc3ccccc3C(N)=O)cc1CO2
→ -21%	-24%
> COc1cccc(C(=O)Nc2ccc(Oc3cccc(C(F)(F)F)c3)nc2)c1
→ ?	i
> COc1ccc(-n2c(CNC(=O)c3cc(C(F)(F)F)ccc3Cl)nnc2SC)cc1
→ 0%	i
> O=C(NCC1CCCO1)/C(=C/c1cn(-c2ccccc2)nc1-c1cccnc1)NC(=O)c1ccccc1 (centres undefined)
→ -8%	-13%
> CC(=O)c1cccc([N+](=O)[O-])c1
→ -14%	-17%
> CCC(NC(=O)c1ccccc1NC(=O)c1ccco1)C(=O)O (centres undefined)
→ -5%	.
> Cc1ccc(C)c(S(=O)(=O)c2nnn3c2nc(N2CCCC2)c2sccc23)c1
→ ?	?
> COc1ccc(-n2c(CCNC(=O)c3ccc(-c4cccc(F)c4)cc3)nnc2SC)cc1
→ -11%	-17%
> COC(=O)c1c(NC(=O)c2ccnn2C)sc(C)c1C
→ -22%	-20%
> CCCc1ccccc1OCCNC(=O)c1cc(=O)n(C)c(=O)n1C
→ -6%	i
> CCc1nn(C(C)C(=O)N(C)Cc2ccccc2)c(=O)c2cc3occc3n12 (centres undefined)
→ -8%	-11%
> CC[C@@]1(C(=O)OC)N[C@H](CN(C)S(=O)(=O)c2ccc(C(F)(F)F)cc2)[C@@H]2C(=O)N(C)C(=O)[C@@H]21
→ 0%	i
> O=C(NC1CCCC1)C(Cc1ccccc1)n1cccc1 (centres undefined)
→ -1%	9%
> O=C(CN1C(=O)NC2(CCSC2)C1=O)NCc1ccccc1 (centres undefined)
→ -5%	i
> Cc1ccc(CSCC(=O)N2CCN(c3ccc(F)cc3)CC2)cc1
→ -7%&-28%	-9%&-23%
